Screens (PubChem BioAssay)
gsp antagonist = antagonizes gsp, the McCune-Albright syndrome mutation; gsp-mutant cells, cAMP HTRF, 30 min; control for the full effect not named in the record; Potency, µM (doses to about 76.9 µM), without a hit: at the highest dose activity change, negative = inhibition, most hits filed as inhibitors; 0.4% of 340,000 active; active = falling curve of any shape with a large fitted effect; inconclusive = falling curve, mostly with a smaller effect; inactive = flat or rising curve; cell line not stated here;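 also: intracellular cAMP measured with PDE inhibitor Ro 20-1724 present during compound exposure; potency is read from the fitted curve at half-maximal effect; % is scaled to controls: 0 for no effect and ±100 for the full control effect; nearly all actives have a fitted effect of over 65% in size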
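G418-selected cells were plated in DMEM/10% FBS for 16-24 h at 37C, then treated with compounds plus the PDE inhibitor […] (300 uM solution added) for 30 min at 37C. Intracellular cAMP was measured by HTRF after 30 min lysis at room temperature.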
TRPV1 PAM = human TRPV1 potentiation | Q8NER1 | TRPV1-expressing cells, Fluo-8 calcium influx, capsaicin EC20 potentiation; host cell line not named in the record; control for the full effect not named in the record | potentiation, % at 8.33 µM | 0.02% of 320,000 active | AID 540277; active means potentiation above 80%; inconclusive means 30% to 80%; inactive means below 30%; also: 0% is about no effect
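TRPV1-expressing cells were cultured overnight at 35.5C and loaded with Fluo-8 calcium dye for 40 to 90 min at room temperature. After a 10 s baseline, compound was added and calcium influx was read kinetically for 3 min (ex 480/em 520 nm).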
Menin-MLL FL inh = displaces fluorescein MLL peptide from human menin | Fluorescence polarization, fluorescein-MLL peptide displacement from menin | FP activity change, % at 61.4 µM | 290,000 tested, under 10 active | AID 1766; inconclusive = falling polarisation curve, or a change in total fluorescence; inactive = total fluorescence flat and polarisation flat or rising; no compound was filed as active; the % refers to the polarisation; negative = inhibition;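 also: % of control where 0% means no effect; inhibitors lower the polarisation; unlabelled MLL peptide was the positive control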
ClpP mod = qHTS Assay for Activators of ClpP. ATP-dependent Clp protease proteolytic subunit (Bacillus subtilis (strain 168)), P80244. purified B. subtilis ClpP, FRET peptide cleavage, 20 min. Potency, µM (highest dose often 57.5 µM), for the others: at the highest dose activity change, negative = active. 1.9% of 340,000 active; active = well fitted falling curve with a large enough effect; inconclusive = small, poorly fitted or top-dose-only effect; inactive = no such curve, though single readings can be large or run the other way; also: potency is read from the fitted curve at half-maximal effect; the source files actives as falling curves though it sought activators and does not explain the sign; nearly all actives have a fitted effect of over 65% in size; many hits overshoot -100%
Target sequence (P80244 whole entry, looked up): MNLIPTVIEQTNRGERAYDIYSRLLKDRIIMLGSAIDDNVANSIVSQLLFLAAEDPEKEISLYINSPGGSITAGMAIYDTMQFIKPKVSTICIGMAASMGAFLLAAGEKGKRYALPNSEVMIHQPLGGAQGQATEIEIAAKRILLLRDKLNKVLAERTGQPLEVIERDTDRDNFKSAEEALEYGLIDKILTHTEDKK
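Purified B. subtilis ClpP, 10 microg/mL final in Tris/HCl pH8 with KCl, BSA, glycerol and Tween-20, cleaved an Abz/nitrotyrosine-quenched decapeptide. Fluorescence (ex 320, em 430) was read at 0 and 20 min at room temperature. Delta was normalized to 5.8 microM ADEP and DMSO/no-enzyme controls.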
D2 potentiator = potentiates the human D2 dopamine receptor allosterically; P14416; DiscoveRx D2 beta-arrestin cells, luminescence, 90 min; 100% = 57 uM dopamine signal; potentiation, % (test concentration not listed); 0.23% of 360,000 active; AID 624464; active = potentiation of 50% or more; inconclusive = 30% to 50%; inactive = 30% or less;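 also: compound concentration not given in the record; tested on top of an EC20 dose of dopamine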
Target sequence (P14416 whole entry, looked up): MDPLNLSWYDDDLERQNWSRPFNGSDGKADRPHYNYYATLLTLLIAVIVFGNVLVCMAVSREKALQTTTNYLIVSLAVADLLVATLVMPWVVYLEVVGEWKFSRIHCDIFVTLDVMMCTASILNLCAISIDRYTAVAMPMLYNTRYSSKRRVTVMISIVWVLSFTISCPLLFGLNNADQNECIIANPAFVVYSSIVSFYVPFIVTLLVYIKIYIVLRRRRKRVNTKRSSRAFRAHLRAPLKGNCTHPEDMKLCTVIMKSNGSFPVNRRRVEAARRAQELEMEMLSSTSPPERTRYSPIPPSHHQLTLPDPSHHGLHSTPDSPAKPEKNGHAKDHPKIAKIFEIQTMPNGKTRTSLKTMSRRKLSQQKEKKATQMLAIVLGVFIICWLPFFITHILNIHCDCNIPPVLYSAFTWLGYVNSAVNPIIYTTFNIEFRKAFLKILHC
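PathHunter beta-arrestin assay in DiscoveRx D2 cells. Compounds were added with an EC20 of dopamine (50 nM final) for 90 min at 37 deg C. Luminescence was read 1 h after detection reagent, with 57 uM dopamine as the EC100 control.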
gsp agonist = agonists of gsp mutant (McCune-Albright syndrome); AID 624287; 0.13% of 340,000 active; Potency, µM (series often up to 76.9 µM), inactives show at the top dose activation (cAMP increase), usual class: activators; gsp mutant cells, cAMP HTRF, 30 min; control for the full effect not named in the record; active = well fitted activation curve with a large enough effect; inconclusive = small, poorly fitted or top-dose-only effect, or another doubt; inactive = no such curve, though single readings can be large or run the other way; cell line not stated here;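 also: phosphodiesterase inhibitor Ro 20-1724 added with compounds to block cAMP breakdown; potency is read from the fitted curve at half-maximal effect; nearly all actives have a fitted effect of over 60% in size; about a fifth of the inactives were tested at one dose only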
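Cells stably selected in G418 were plated at 2000/well, grown 16-24 hr, then given compounds in DMSO with the PDE inhibitor […] (300 uM solution added) for 30 min at 37C; cAMP was read by HTRF.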
Sfp inh = Sfp phosphopantetheinyl transferase inhibition | Q9F4F7 | Biochemical Sfp PPTase activity, qHTS | Potency, µM, for the others: max response, negative = inhibition, actives largely listed as inhibitors | 3.5% of 310,000 active; active = well fitted inhibition curve with a large enough effect; inconclusive = small, poorly fitted or top-dose-only effect, or another doubt; inactive = no such curve, though single readings can be large or run the other way;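 also: the enzyme is Sfp with the accession as filed and its product quenches rhodamine fluorescence; potency is read from the fitted curve at half-maximal effect; 0% = enzyme reaction without inhibitor and -100% = no enzyme wells; top concentration of the series not given in the record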
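Sfp 15 nM + cpd, 15 min RT; start w/ rhodamine-CoA 5 uM, BHQ-2-YbbR 12.5 uM (final); 50 mM Hepes pH 7.6, 10 mM MgCl2, 0.01% NP-40, 0.01% BSA; read 525/598 nm at 0 and 30 min.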
An asterisk follows results filed as active; ? = inconclusive; / = no result given; & = joins results of further samples; [ ] = remark or other dose. Rows were taken by chance. Share with any hit: about 5.1%.

Screens in order: gsp antagonist	TRPV1 PAM	Menin-MLL FL inh	ClpP mod	D2 potentiator	gsp agonist	Sfp inh
> Clc1ccc(-c2nnc(SCc3nc4ccccc4s3)o2)cc1
 : -4%	?	0.9	-6.6%	0	7%	0%
> O=C(c1nnc(-c2ccncc2)o1)c1ccccc1Cl
 : 0%	7	3.3	-0.5%	-2	-35%	20%
> Cc1c(C(=O)N2CCOCC2)oc2ccccc12
 : 11%	-3	/	-1.3%	-3	-38%[inhibitor]	/
> COc1ccc(NC(=O)Nc2cccc3ccccc23)c(OC)c1
 : -6%	-8	/	?	-14	8%	17%
> Cn1c(CNC(=O)c2ccc(Cl)cc2)nnc1SCC(=O)Nc1sc2c(c1C#N)CCCC2
 : 5%	29	0.7	-0.6%	-11	-19%	9%
> CCN(CC)CCn1c2c(c(SCC(=O)Nc3ccccc3Cl)nc1=O)CCCC2
 : 4%	6	/	-7.6%	-28	-3%[15.4 µM]	/
> Cc1cccc(OCC(=O)N2CCC3(CC2)CC(=O)c2ccccc2O3)c1
 : -6%	0	/	/	-7	22%[15.4 µM]	/
> FC(F)(F)c1cccc(N2CCC(N=CN3CCCCCC3)=N2)c1
 : -27%	-5	-4.1	/	-13	-3%[15.4 µM]	1%
> CCOC(=O)c1cnc2ccc(C)cc2c1Sc1ccc(F)cc1
 : 3%	-27	-0.3	-1.3%	-12	26%	?
> COc1cccc(CNCc2cccc(Br)c2)c1OC
 : 10%	-10	-5.6	/	-15	3%[15.4 µM]	-6%
> CC(C)(C)NC(=O)CSCc1ccc(Br)cc1
 : 10%	-25	0.5	2.8%	0	-3%	23%
> Cc1nn(CC#N)c(=O)n1-c1cccc(F)c1
 : -8%	6	-0.5	-0.2%	-10	2%	-7%
> COCCNC(=O)CN1CCCCCC1
 : 8%	6	-0.4	0.9%	-3	-13%	-10%
> COc1ccc(C(=O)COC(=O)c2ccc(NC(C)=O)cc2)cc1[N+](=O)[O-]
 : -11%	-2	3.5	-4.7%	-10	16%	-3%
> Cc1ccc(S(=O)(=O)Nc2cccc(C(=O)NCC(c3ccco3)N3CCCCC3)c2)cc1F (stereo not given)
 : -12%	5	/	-1.5%	-26	-1%[15.4 µM]	/
> Cn1nc([N+](=O)[O-])c(C(C#N)c2nc3ccccc3n2C)c(Cl)c1=O (stereo not given)
 : ?	-7	?	1.4%	-40	-32%[inhibitor]	9%
> CSc1nnc(-c2sccc2-n2cccc2)o1
 : 4%	25	6.0	/	-6	27%	21%
> CC(=O)OCC(=O)C1(O)CCC2C3CCC4C(OC(C)=O)C(=O)CCC4(C)C3C(=O)CC21C (stereo not given)
 : -19%	/	/	0.2%	14	-13%	/
> Cc1nonc1NCn1nnc2ccccc21
 : 0%	-12	0.3	-5.3%	-1	5%	4%
> O=c1[nH]ncc(N/N=C\c2ccc(O)cc2O)c1Cl
 : 3%	-1	-0.4	/	0	?	-11%
> Cc1ccc(/C(N)=N/OC(=O)CCc2ccccc2)cc1
 : 1%	5	5.5	-0.3%	8	6%	-13%
> COc1cc(/C=C(\C#N)c2ccccn2)ccc1OCc1ccccc1Cl
 : -6%	-12	2.4	1.0%	-11	0%	2%
> CCN(CC)CCCNC(=O)c1cn(CC(C)C)c(=O)c2c1c1ccccc1n2C
 : 20%	-7	0.3	16µM*	-4	-2%	2%
> O=C(NCCS(=O)(=O)c1ccc(Br)cc1)c1ccc(Cl)cc1
 : 6%	-2	-4.9	-1.3%	-30	4%	12%
> Cc1ccc(NC2CCCN(C(=O)c3cc(C(C)C)[nH]n3)C2)cc1C (stereo not given)
 : 0%	10	/	-1.3%	15	?	5%
> O=[N+]([O-])c1ccc(NCc2ccc(Cl)cc2)nc1
 : 2%	2	-3.2	/	-5	4%	1%
> CC(C)c1nc2sc3c(=O)[nH]c(=S)[nH]c3c2c2c1CCCC2
 : 14%	-1	-1.4	/	-5	22%[15.4 µM]	9%
> CCOc1ccccc1C(=O)NCC(=O)OCC(=O)c1ccc2c(c1)OCCO2
 : 5%	2	1.1	-0.5%	-4	17%	-8%
> COc1ccc(CC(NC(C)=O)C(=O)NC2CCN(C(=O)NCc3ccccc3)CC2)cc1OC (stereo not given)
 : 10%	2	5.7	-1.6%	-5	14%	10%
> Cc1cc(NCc2ccccn2)n2nc(C)c(-c3ccc(Cl)cc3)c2n1
 : -25%	23	1.7	0.8%	0	-3%[15.4 µM]	-8%
> Cc1cccc(C)c1NC(=S)NCCc1ccccn1
 : 14%	11	2.4	-4.2%	-8	-38%	-18%
> COc1cccc(C(=O)N/N=C/c2ccc(OC3CSC3)cc2)c1
 : -3%	11	14	-3.4%	-14	-23%	20%
> CCOC(=O)C1CCCN(S(=O)(=O)c2cccc3cccnc23)C1 (stereo not given)
 : -3%	1	2.5	-0.2%	-19	-18%	-3%
> Cc1ccc(NC(=O)CN(C)C(=O)CSc2n[nH]c(N)n2)cc1
 : 3%	-4	-0.7	-1.7%	-9	6%	4%
> COc1cc(C(=O)N(Cc2ccccn2)CC2CCCO2)cc(OC)c1OC (stereo not given)
 : 8%	?	0.1	-1.9%	-2	1%	1%
> C=CCn1c(O)c(C=Nc2ccccc2)sc1=S
 : -27%	-2	7.7	/	-1	1%	-2%
> COc1ccc(-c2c(C(F)(F)F)oc3cc(OCC(=O)Nc4ccccc4C(F)(F)F)ccc3c2=O)cc1OC
 : 5%	16	-0.1	1.3%	-2	0%	-29%
> COc1ccc(N2CCN(c3nc(Cl)nc(N4CCOCC4)n3)CC2)cc1
 : 3%	3	2.9	-2.4%	-1	17%	-9%
> Cc1cc(C(=O)OCC(=O)NCc2ccco2)c(C)o1
 : -1%	4	8.4	/	-2	-2%[15.4 µM]	?
> CCS(=O)(=O)N1CCN(C2Cc3ccccc3C2)CC1
 : 5%	-2	5.4	-1.3%	6	-3%	-25%
> COc1ccc(C2/C=C\CN(C(=O)CC(C)(C)C)CC(=O)N2Cc2ccc(F)cc2)cc1 (stereo not given)
 : -8%	-29	0.4&5.6	0.0%	-3	/	-9%&2%
> COc1ccc(Cl)cc1NC(=O)c1cc(-c2ccccc2O)n[nH]1
 : -36%	-5	-1.3	-1.1%	14	2%	13%
> CCN(C(=O)COC(=O)/C=C/c1ccc(S(=O)(=O)N2CCc3ccccc32)cc1)C1CCS(=O)(=O)C1 (stereo not given)
 : -14%	-11	2.9	/	5	?	21%
> COc1ccc(C2(C)C(C#N)C(=O)NC(=O)C2C#N)cc1 (stereo not given)
 : 3%	/	/	2.6%	-1	-4%	/
> CCCCCNCc1cccc(Br)c1
 : 2%	14	-0.5	0.2%	-19	-3%	9%
> O=C(COC(=O)/C=C/c1ccco1)Nc1ncc(Cl)cc1Cl
 : -14%	-3	17	-2.0%	-5	-16%	-60%
> Cc1nn(Cc2ccccc2)c(Cl)c1/C=C/C(=O)OCC(=O)N(C)C1CCS(=O)(=O)C1 (stereo not given)
 : -4%	1	-2.9	/	-7	23%[15.4 µM]	11%
> CCCCCCCCc1nc(SCC(C)=O)n[nH]1
 : 5%	-21	3.7	/	0	-16%	4%
> COc1ccc(C)cc1N1CC(C(=O)Nc2ccccc2C(=O)NC2CC2)CC1=O (stereo not given)
 : 1%	4	/	0.1%	1	-71%[inhibitor]	/
> COc1ccc(C2CC(c3cccs3)=NN2S(C)(=O)=O)cc1 (stereo not given)
 : -4%	/	1.1	/	-1	4%[15.4 µM]	21%
> Cc1ccc(C(=O)Nc2nc3ccc(Cl)cc3s2)o1
 : -10%	/	/	/	-14	-6%[15.4 µM]	/
> Cc1oc(-c2ccc(Cl)cc2)cc1C(=O)/C(C#N)=C/Nc1cccc(OC(F)(F)F)c1
 : -9%	1	6.9	/	-6	-1%[15.4 µM]	3%
> CC(C)Cn1c(N)c(C(=O)COC(=O)c2cc(C(F)(F)F)nc3ccccc23)c(=O)n(C)c1=O
 : -2%	6	24&2.7	-3.9%	-6	6%	3%&10%
> CC(=O)Nc1ccc(NC(=O)CSc2nc(N)c(NC(=O)c3ccccc3F)c(=O)[nH]2)cc1
 : 16%	12	/	-14%	-12	0%[15.4 µM]	13%
> Cc1ccc(O)c(C(=O)/C=C/c2ccc3c(c2)OCCO3)c1
 : -10%	-2	-1.5	1.2%	-6	-5%	-27%
> Cc1ccc(Cl)cc1NS(=O)(=O)N1CCOCC1
 : 12%	2	/	2.2%	-17	?	8%
> COCCNC(=O)CN(Cc1ccc(Cl)cc1)S(C)(=O)=O
 : -1%	4	4.9	-0.4%	8	?	14%
> COc1ccc2cc(-c3[nH]ncc3CN3CCCCO3)ccc2c1
 : 8%	-1	-9.3	/	-6	-16%	12%
> CN(C)C(=O)C(=O)c1c(-c2ccccc2)cc2ccccn12
 : ?	-5	0.4	-0.2%	-11	-14%	4%
> CS(=O)(=O)N(CC(=O)N/N=C/c1cc([N+](=O)[O-])ccc1Cl)c1ccccc1
 : -17%	1	-0.2	-3.1%	-6	-8%	-13%
> CC(C)N1CCN(C(=O)c2ccc(OC3CCN(CCc4ccccc4)CC3)cc2)CC1
 : 9%	-8	/	-5.5%	-32	-22%[15.4 µM]	7%
